eIF4H FP inh – human eIF4H binding inhibitors, primary screen, translation initiation inhibitor project, biochemical, uHTS, fluorescence polarization. Eukaryotic translation initiation factor 4H (Homo sapiens), Q15056. eIF4H fluorescence polarization binding assay. inhibition, % at 35 µM. actives 0.94% (n = 290,000);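 active = 50% or more with normal probe brightness, or confirmed in later tests; inconclusive = above 50% with abnormal brightness, or retests that disagree; inactive = below 50% or failed in later tests; about a fifth of its hits are not listed in these tables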;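 also: calls also rest on retests at 20 µM and on dose response follow-up; 0% = protein and probe with vehicle and 100% = probe without protein; strong numbers were not always called active; many hits fall short of the cut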
MT1-MMP act inh – blockers of MT1-MMP proenzyme processing, primary screen, HT1080 RFP-PRO-GFP cells, GFP/RFP fluorescence. Matrix metalloproteinase-14 (Homo sapiens), P50281. GFP/RFP ratio fluorescence, overnight; percent of plate control window, DMSO zero. GFP/RFP ratio change, % at 20 µM. actives 0.061% (n = 360,000). AID 651647, 2012;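 active = GFP/RFP ratio change of at least 30% with cell ATP level not reduced by more than half and red fluorescence within 50% of control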; also: strong numbers were not always called active
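Compound: 20 µM single dose, 1% DMSO / System: HT1080 RFP-PRO-GFP cells / Controls: DMSO and RFP-L50D-GFP cell wells / Read-out basis: GFP/RFP fluorescence ratio / Schedule: overnight compound exposure at 37 °C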
CSC inhib – cancer stem cell viability inhibitors, primary screen, luminescence. inhibition, % at 7.5 µM. actives 1.1% (n = 300,000). cancer stem cell-like cells viability;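 active = mean at 75% or more and at least half the replicates too; inconclusive = mean and replicates disagree; tested in HMLE shEcad cells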;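 also: 0% = median of negative and 100% = median of positive control wells; the first replicate is given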
PABP polyA inh – PABP poly(A) RNA binding inhibitors, primary screen, biochemical, fluorescence polarization, uHTS; Polyadenylate-binding protein 1 (Homo sapiens), P11940; inhibition, % at 35 µM; actives 1% (n = 290,000); AID 2014, 2009;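 active = 50% or more with normal probe brightness, or confirmed in later tests; inconclusive = above 50% with abnormal brightness, or retests that disagree; inactive = below 50% or failed in later tests; about a fifth of its hits are not listed in these tables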;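 also: calls also rest on retests at 20 µM and on dose response follow-up; controls were probe without protein and protein plus probe with vehicle; some compounds called inactive have numbers as strong as hits; many hits fall short of the cut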
Target sequence (P11940 whole entry, looked up): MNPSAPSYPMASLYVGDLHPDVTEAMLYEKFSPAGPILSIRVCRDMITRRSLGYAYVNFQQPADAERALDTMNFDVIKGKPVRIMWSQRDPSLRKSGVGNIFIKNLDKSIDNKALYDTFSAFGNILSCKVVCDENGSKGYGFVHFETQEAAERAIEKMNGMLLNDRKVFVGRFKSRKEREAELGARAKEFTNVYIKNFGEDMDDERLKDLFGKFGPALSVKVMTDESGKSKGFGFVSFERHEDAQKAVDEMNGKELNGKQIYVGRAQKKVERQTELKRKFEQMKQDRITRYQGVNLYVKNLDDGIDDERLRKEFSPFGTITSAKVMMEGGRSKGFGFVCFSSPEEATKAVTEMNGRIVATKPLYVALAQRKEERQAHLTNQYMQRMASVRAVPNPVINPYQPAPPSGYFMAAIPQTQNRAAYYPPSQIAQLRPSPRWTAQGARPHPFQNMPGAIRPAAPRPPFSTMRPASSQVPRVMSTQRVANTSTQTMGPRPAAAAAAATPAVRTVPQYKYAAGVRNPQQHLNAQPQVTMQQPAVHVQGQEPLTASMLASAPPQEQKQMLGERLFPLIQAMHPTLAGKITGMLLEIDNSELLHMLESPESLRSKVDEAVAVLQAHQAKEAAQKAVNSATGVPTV
Env fusion inh – inhibitors of HIV-1 Env-driven cell-cell fusion, primary screen, HeLa-JRFL effector, CEM21 target cells, luciferase; inhibition, % at 12.3 µM; actives 1.1% (n = 360,000); AID 651610, 2012;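 active = mean replicate inhibition score of at least 50 and every replicate individually at or above 50; inconclusive = only one of the two criteria met; inactive = mean below 50 and not all replicates reaching 50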;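 also: 0% = plate neutral controls and 100% = maraviroc near 300 nM; one replicate is shown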
UUG fidelity – modulators of yeast start codon fidelity, primary screen, whole organism, S. cerevisiae, single point, plate reader; S. cerevisiae UUG-firefly luciferase reporter, luminescence/redox ratio; activity score, % at 18.7 µM; actives 0.13% (n = 350,000); AID 602363, 2012;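 active = replicate mean at a twofold rise or more, about +100% in these data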;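 also: firefly luciferase made from a UUG start codon reports start codon fidelity; reporter light over untreated wells divided by growth signal over untreated wells; some hits fall short of that in this replicate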
Rce1 inh – yeast Rce1p protease inhibitors, primary screen, biochemical, fluorescence, cell-free homogeneous | CAAX prenyl protease 2 (Saccharomyces cerevisiae (strain ATCC 204508 / S288c)), Q03530 | yeast membranes, quenched prenylated peptide cleavage fluorescence | calls only | actives 0.27% (n = 290,000) | AID 2563, 2010;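 active = fall in fluorescence gain of 50% or more versus controls, with final raw signal at or below 3038400; inconclusive = same 50% fall but final raw signal above 3038400; inactive = fall in fluorescence gain under 50%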;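 also: plate controls were neutral control wells for no effect and wells lacking membranes for full effect; tested at 10 µM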
eIF4H FP inh retest – further read-out of eIF4H FP inh, marked with its call; inhibition, %; compound at 20 µM; confirmation average;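 mean of two retest wells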
PABP polyA inh retest – further read-out of PABP polyA inh, marked with its call; inhibition, %; compound at 20 µM; confirmation repeats;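 mean of two retest wells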
MT1-MMP act inh RFP – recorded beside MT1-MMP act inh, whose call it bears; RFP signal change, %; measured here: RFP expression control read;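 0 = vehicle wells; hits needed this value within 50% of zero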
* marks the source's active call; other numbers are inactive results; i = inactive; u = inconclusive; x = no result given. Some of the compounds tested (hit frequency here may not be typical).

SMILES | eIF4H FP inh | MT1-MMP act inh | MT1-MMP act inh RFP | CSC inhib | PABP polyA inh | Env fusion inh | UUG fidelity | Rce1 inh | others
Cc1cccc(NC(=O)C(C)N2C(=O)C3C4CC(C(Br)C4Br)C3C2=O)c1 (stereo not drawn) | 6 | 3 | 1 | 1 | -3 | 43 | -1 | i
Cn1c(=O)c2c(ncn2CC(=O)OCC(=O)NCCc2ccccc2)n(C)c1=O | x | -1 | 4 | x | x | 6 | -3 | x
CCOC(=O)c1c(C)[nH]c(C)c1C(=O)COC(=O)c1cccc(S(=O)(=O)NC)c1 | -5 | 1 | -6 | 3 | -6 | -28 | -1 | i
COc1ccccc1CN(C(=O)c1cnccn1)C(C(=O)NC1CCCCC1)c1cc(OC)c(OC)c(OC)c1 (stereo not drawn) | 2 | -1 | -2 | -7 | 2 | 16 | -6 | i
COCCn1cc(C(=O)N2CCC(C)CC2)c2c3ccccc3n(C)c2c1=O | 1 | -1 | 1 | -1 | 7 | -33 | 2 | i
O=C(CNC(=O)c1ccco1)OCc1ccc(C(=O)Oc2ccccc2)cc1 | -7 | -4 | 0 | -6 | 4 | 4 | -13 | i
Cn1cccc1/C=N/NC(=O)Cc1ccccc1 | 18 | 2 | 1 | -10 | -4 | 2 | -13 | i
O=C(Nc1cc([N+](=O)[O-])ccc1N1CCCC1)c1ccccc1 | 6 | x | x | -1 | -10 | 4 | 2 | i
CCc1noc(C)c1C(=O)Nc1cc(S(=O)(=O)N(CC)CC)ccc1N1CCCC1 | x | -1 | -3 | -7 | x | -1 | -17 | i
COc1ccccc1Cn1c(CCCO)nc2ccccc21 | -2 | -1 | 0 | -15 | 6 | x | -12 | i
Cc1ccc2c(c1)N(C(=O)CCC(=O)NCc1cccc(Br)c1)CC(C)O2 (stereo not drawn) | -4 | 2 | -9 | 22 | -9 | 4 | 15 | i
Clc1ccc2nc(CSc3nncn3-c3ccccc3)cn2c1 | 2 | -2 | -2 | -15 | -4 | -20 | -15 | i
Cc1nn(C)cc1CNC(=O)Nc1ccc(Cl)cc1 | 5 | 0 | 5 | -14 | 0 | -29 | -1 | i
COc1ccccc1NC(=O)c1nn(-c2ccc(OC(F)(F)F)cc2)ccc1=O | 3 | 5 | 6 | x | -4 | x | 4 | i
CC(C)(C)OC(=O)CC1(C#N)c2ccccc2C(Br)=CN1C(=O)c1ccccc1 (stereo not drawn) | x | 9 | 1 | 23 | x | 21 | -21 | i
CCOc1ccccc1CN(Cc1ccco1)S(=O)(=O)c1ccc(-n2cnnn2)c(OC)c1 | 10 | -11 | -15 | x | 2 | x | 4 | i
CCCCC(=O)C1=C(N2CCCC2)CC(C)(C)CC1=O | x | 5 | 6 | -7 | x | -15 | -20 | i
CCCN1CCN(C(=S)Nc2sc(CC)cc2C(=O)OC)CC1 | -3 | 1 | -1 | -4 | -4 | -15 | x | i
COc1ccc(OC)c(Cc2nnc(CCC(=O)NC3CCCC3)o2)c1 | -14 | 2 | 5 | -6 | -3 | 1 | x | i
C=C1CCC[C@]2(C)C[C@H]3OC(=O)C(CN4CCCCC4CO)[C@H]3CC12 (stereo partly drawn) | 0 | -20 | -18 | 33 | -3 | -35 | -18 | i
CNc1cc(-n2nc(C)cc2-c2ccccc2)ncn1 | 1 | -8 | -2 | -12 | 5 | -12 | -24 | i
CCC(C)n1ncn(-c2ccc(N3CCN(c4ccc(OC)cc4)CC3)cc2)c1=O (stereo not drawn) | 6 | 5 | -3 | -5 | 5 | -12 | 4 | i
Fc1ccc(CNC(=S)Nc2cccc(Cl)c2)cc1 | -7 | 7 | 2 | -9 | -11 | x | -29 | i
COc1cc(C(=O)NCc2ccc(C)cc2)ccc1OC(F)F | -11 | 1 | 0 | -10 | -7 | 15 | 6 | i
C/C(=N\N=c1/sc2ccccc2n1C)c1ccc(N2CCOCC2)cc1 | -6 | -3 | 3 | 9 | -3 | -7 | x | i

Taken from the results shown for reference:
SMILES | eIF4H FP inh | MT1-MMP act inh | MT1-MMP act inh RFP | CSC inhib | PABP polyA inh | Env fusion inh | UUG fidelity | Rce1 inh | others
Cc1cccc(NC(=O)C(C)N2C(=O)C3C4CC(C(Br)C4Br)C3C2=O)c1 (stereo not drawn) | 6 | 3 | 1 | 1 | -3 | 43 | -1 | i
Cn1c(=O)c2c(ncn2CC(=O)OCC(=O)NCCc2ccccc2)n(C)c1=O | x | -1 | 4 | x | x | 6 | -3 | x
CCOC(=O)c1c(C)[nH]c(C)c1C(=O)COC(=O)c1cccc(S(=O)(=O)NC)c1 | -5 | 1 | -6 | 3 | -6 | -28 | -1 | i

Later entries.
SMILES | eIF4H FP inh | MT1-MMP act inh | MT1-MMP act inh RFP | CSC inhib | PABP polyA inh | Env fusion inh | UUG fidelity | Rce1 inh | others
CCCNC(=O)C1(S(=O)(=O)c2ccccc2)CC=CC1 | 0 | -2 | 3 | 9 | -13 | -2 | -11 | i
COc1ccc(/C=C/c2nc3ccccc3c(=O)n2-c2cccc(C(=O)O)c2)cc1 | -1 | -2 | -3 | 4 | -5 | 10 | 22 | i
COCCN1C(=O)N[C@@H](c2ccco2)C(C(=O)OC)=C1C | x | -4 | -1 | x | x | 10 | -6 | i
O=C(NC1CCCCC1)c1ccc(CS(=O)(=O)c2ccc(Cl)cc2)o1 | 2 | -2 | -4 | 2 | 4 | 12 | -2 | i
O=C(NC12CC3CC(CC(C3)C1)C2)N1CCN(C2CCCCC2)CC1 | -4 | 0 | 0 | -2 | -3 | 3 | x | i
CN1C(=O)c2ccccc2C(C(=O)NCCCN2CCCC2=O)C1c1c[nH]c2ccccc12 (stereo not drawn) | -17 | x | x | -9 | -10 | x | x | i
Brc1ccc(-c2cn3cccnc3n2)cc1 | -2 | -3 | -5 | -15 | 10 | -64 | -14 | x
Cc1ccccc1NC(=O)CSC(N)=O | -4 | 0 | 0 | -11 | -9 | x | -10 | i
COc1ccc(C(=O)COC(=O)CCN2C(=O)[C@@H]3[C@H](C2=O)[C@@H]2C[C@H]3C(Br)C2Br)cc1 (stereo partly drawn) | -1 | 8 | 5 | 29 | 4 | x | -6 | i
O=C(CN1C(=O)NC2(CCCCCC2)C1=O)Nc1ccc(S(=O)(=O)N2CCOCC2)cc1 | -13 | -2 | 2 | 2 | -3 | x | 3 | i
S=C(NCc1ccco1)N1CCN(c2ccccc2Cl)CC1 | -8 | -6 | -7 | 4 | -3 | -13 | -20 | i
COc1cc2c(cc1OC)CN(S(=O)(=O)/C=C/c1ccccc1)CC2 | 5 | 2 | 0 | x | 10 | -4 | 0 | i
O=C(COc1ccccc1C(=O)c1cnn(-c2ccccc2)c1)Nc1ccccc1 | 3 | -3 | -4 | 41 | -11 | -51 | -13 | i
C=C1SC(Nc2c(C)cc(C)cc2C)=NC12CCCCC2 | -14 | -30 | -28 | 60 | 3 | 7 | -8 | i
COc1cc(C2C(C#N)=C(N)Oc3n[nH]c(C)c32)ccc1OC(=O)c1ccccc1 (stereo not drawn) | -8 | 1 | 2 | -21 | -1 | x | -7 | i
COCCOC1CCN(C(=O)c2cc(COc3ccc(-n4cncn4)cc3)on2)CC1 | 0 | -3 | -3 | 7 | -11 | -16 | -2 | i
C=C(c1ccc(O)cc1)c1ccc(O)cc1 | 101 | 0 | -12 | 52 | -3 | x | 0 | i | eIF4H FP inh retest=-2;PABP polyA inh retest=5
CN(C)S(=O)(=O)c1ccc(Cl)c(NC(=O)CN2CCN(c3ccccn3)CC2)c1 | 1 | 6 | -11 | x | -2 | -3 | -6 | i
CCn1c(SCC(=O)NC2CCCC2)nnc1C(C)C | -6 | -2 | 4 | 14 | 4 | 5 | -16 | i
Cc1cc(C)c(OCCOCCN2CCNCC2)c(C)c1 | 2 | -11 | 7 | 49 | 17 | 17 | 19 | x
COc1ccc(C/C(=N\OC(C)=O)c2ccc(OC)cc2)cc1 | 3 | 3 | -2 | -2 | 0 | x | -32 | i
COc1cc(NC(=O)COC(=O)CCc2nc3ccccc3c(=O)[nH]2)cc(OC)c1 | x | -2 | -2 | -18 | x | -7 | -17 | x
Cc1cc(CNC(=O)C2CCC(=O)N(CCc3ccc(Cl)cc3)C2)no1 (stereo not drawn) | 0 | 2 | 4 | -3 | 6 | 2 | -4 | i
Cc1ccc2c(CN(C)Cc3ccc(Cl)cc3Cl)cc(=O)oc2c1 | -17 | -1 | -2 | -3 | -12 | 3 | -11 | i
CC(=O)Nc1cn(-c2ccccc2)nc1-c1ccccc1 | 10 | 1 | 3 | -2 | 3 | 7 | x | i

Later entries.
SMILES | eIF4H FP inh | MT1-MMP act inh | MT1-MMP act inh RFP | CSC inhib | PABP polyA inh | Env fusion inh | UUG fidelity | Rce1 inh | others
COc1cccc(CNC(=O)N2CCN(S(=O)(=O)c3ccc(Cl)cc3)CC2)c1 | -2 | 1 | -3 | -10 | 10 | 22 | 12 | i
COc1nc(NCCN2CCOCC2)nc(Nc2ccc([N+](=O)[O-])cc2)n1 | -1 | 4 | -3 | -7 | -2 | 29 | x | i
COc1ccc(S(=O)(=O)N2CCCCCC2)cc1NC(=O)CCNC(=O)c1ccccc1Cl | x | -6 | -4 | x | x | 15 | -11 | x
CCc1ccc(NC(=O)c2nc(S(=O)(=O)Cc3ccccc3)ncc2Cl)cc1 | 1 | 2 | -1 | 105* | -6 | u | -12 | i
O=C1OC(=O)C2C1[C@@H]1CC[C@H]2O1 (stereo partly drawn) | -4 | 11 | 9 | 10 | 7 | -4 | -14 | i
Cc1ccc(NC(=O)C(C)N=C2NS(=O)(=O)c3ccccc32)cc1 (stereo not drawn) | -6 | 2 | -3 | -29 | -2 | 10 | 12 | i
CC(=O)N1c2ccc(S(=O)(=O)NCC3CCC(C(=O)N4CC(C)CC(C)C4)CC3)cc2CC1C (stereo not drawn) | -3 | 2 | -15 | 1 | 4 | 7 | -15 | i
CSC1=N/C(=C\c2ccccc2F)C(=O)S1 | -1 | 1 | 4 | -13 | 7 | x | -16 | i
Cc1cc2nnc(SCC(=O)NC3CCCCC3)n2c(N)n1 | -6 | 1 | 3 | -1 | 4 | 9 | -24 | i
CCCCC(=O)N1CCN(c2nc3ccc(OCC)cc3s2)CC1 | -5 | 1 | -8 | -2 | -11 | -4 | 3 | i
O=C1/C(=C/c2ccc(F)cc2)Oc2cc(OC(=O)N3CCOCC3)ccc21 | 2 | 2 | -5 | 7 | 3 | -5 | x | i
COc1ccc(-c2ccc(C(=O)N3CCN(C)CC3)c3occc23)c(C)c1 | x | 12 | 1 | x | x | 13 | 38 | x
CCN(CC(=O)Nc1ccc(NC(C)=O)cc1)C(=O)c1cccc2ccccc12 | x | 1 | 2 | -5 | x | x | 0 | x
O=C(CCc1nnc2ccc(NCc3ccccc3)nn12)NC1CCCCC1 | 6 | 4 | 4 | 2 | -1 | -6 | -19 | i
Cc1nc(SCC(=O)N2CCc3ccccc32)n[nH]1 | 2 | -3 | 3 | -15 | -10 | x | -22 | i
O=C(NCc1ccc(F)cc1)C1CCN(S(=O)(=O)N2CCC3(CC2)OCCO3)CC1 | -7 | 4 | 4 | -21 | 4 | x | 3 | i

Assay outcomes from PubChem.
